Source: PubChem (Broad Institute)
FGF22 binding – binders of recombinant human FGF22 by thermal shift | Q9HCT0 | SYPRO orange fluorescence; percent of sucrose octasulfate shift, DMSO zero | calls only at 9.99 µM | 340,000 tested, 1.5% active | AID 651658;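 active means melting point raised past a set limit in the mean and every replicate; three in four hits are not shown here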
Target sequence (Q9HCT0 whole entry, looked up): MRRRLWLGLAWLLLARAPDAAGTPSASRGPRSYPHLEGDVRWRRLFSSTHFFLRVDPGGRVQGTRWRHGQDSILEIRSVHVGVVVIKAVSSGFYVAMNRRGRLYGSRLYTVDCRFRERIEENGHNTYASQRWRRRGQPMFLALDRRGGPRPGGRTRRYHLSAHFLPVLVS
rRNA inh HTS – selective bacterial rRNA inhibition in E. coli; E. coli WT GFP vs humanized-ribosome RFP mutants, fluorescence, 24 h; active compounds read low; DMSO median 0, no signal -100; GFP signal change (wild-type ribosome), % (no concentration beside the values); 350,000 tested, 1.6% active;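 active means significant combined selectivity score with lowered wild-type GFP, culture density cut under 30%, mutant RFP and density less affected; inactive means any of these conditions unmet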; further: one replicate is shown; some compounds called inactive have numbers as strong as hits
rRNA inh HTS OD600 – further read-out of rRNA inh HTS, marked with its call; OD600 change, %; measured here: OD600 growth;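 optical density of the mix in the first replicate; 0 = DMSO median and -100 = no signal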
rRNA inh HTS RFP – also measured in rRNA inh HTS; calls as there; RFP signal change, %; measured here: RFP humanized mutant strains;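 first replicate; 0 = DMSO median and -100 = no signal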
* = called active by the depositor; i = inactive; . = not tested or not shown; & = joins results of further samples. Only part of the results is shown; count on the stated rates, not on these rows.

SMILES | FGF22 binding | rRNA inh HTS | rRNA inh HTS OD600 | rRNA inh HTS RFP
CC(=O)Nc1ccc2c(c1)C(=O)N(C)[C@H]1CC[C@@H](CC(=O)NC3CCCCC3)O[C@@H]1CO2 | i | 3 | 10 | 0.0
CCCNC(=O)Nc1ccc2c(c1)C(=O)N(C)[C@@H]1CC[C@H](CC(=O)O)O[C@H]1CO2 | i | 3 | 5 | -2.0
Cc1ccc(S(=O)(=O)Nc2ccc3c(c2)CC(=O)N([C@H](C)CO)C[C@H](C)[C@H](CN(C)S(=O)(=O)c2ccccc2)O3)cc1 | i | 5 | -7 | 1.8
CC=Cc1ccc2n(c1=O)C[C@@H]1[C@@H](CO)[C@H](C(=O)NC3CCC3)N(CC)[C@H]21 (mixture of isomers) | i | 1 | 11 | -2.3
C[C@@H]1CN([C@H](C)CO)C(=O)c2cc(NS(=O)(=O)c3cn(C)cn3)ccc2O[C@@H](C)CCCCO[C@H]1CN(C)Cc1ccc2c(c1)OCO2 | i | 1 | 6 | -0.9
O=C(C[C@H]1CC[C@@H]2[C@H](COC[C@H](O)CN2C(=O)c2ccccc2F)O1)NCc1ccc(Cl)c(Cl)c1 | i | -9 | -14 | 4.8
COC(=O)C1=C(C)N(Cc2cccc(C(F)(F)F)c2)C(=NCc2ccc(C(F)(F)F)cc2)NC1c1ccccc1C(F)(F)F (centres undefined) | i | 22 | 1 | 6.6
CCCCc1c(-c2ccccc2OC)ncn1Cc1ccc(OC)c(Cl)c1 | i | -53 | -78 | -19
C[C@@H]1CCCCO[C@H](CN(C)C(=O)CCC(F)(F)F)[C@H](C)CN([C@@H](C)CO)C(=O)c2cc(NC(=O)CCCCCC(=O)Nc3ccccc3N)ccc2O1 | i | -1 | 1 | 0.8
CO[C@@H]1CN(C)C(=O)c2cc(NS(=O)(=O)CC(F)(F)F)ccc2OC[C@H](C)N(CC2CCCCC2)C[C@H]1C | i | -7 | -13 | 2.0
C[C@H]1CCCCO[C@H](CN(C)Cc2ccc(C(F)(F)F)cc2)[C@@H](C)CN([C@@H](C)CO)C(=O)c2cc(NC(=O)C3CCCCC3)ccc2O1 | i | -8 | -2 | -2.3
CN(C)C(=O)c1ccc(-c2ccc(C3[C@@H]4CNC[C@H]3N4)cc2)cc1 (some centres undefined) | i | 5 | 16 | 1.5
C[C@@H]1CNCCN1c1ccc(N2CCS(=O)(=O)CC2)c(C#N)c1 | i | 9 | 12 | -0.1
Cc1cc(Nc2cccc(F)c2)cc(=O)n1-c1cccc(F)c1 | i | 7 | 9 | 4.8
CN(C)C(=O)c1cccc(-c2ccc3c(c2)[C@H]2[C@H](CCN2C(=O)c2cnccn2)[C@@H](CO)N3)c1 | i | 2 | 15 | -2.7
Cc1ccccc1NC(=O)N(C)[C@H]1C[C@H]2c3[nH]c4c(-c5ccccc5)cccc4c3CCN2C(=O)[C@H]1[C@H](C)O | i | -27 | -53 | -6.2
C[C@H]1CN([C@@H](C)CO)C(=O)Cc2cc(NC(=O)CCCCCC(=O)Nc3ccccc3N)ccc2O[C@H]1CN(C)S(=O)(=O)c1cccs1 | i | -1 | -7 | -0.4
CCC(=O)N1C[C@H](O)COC[C@@H]2O[C@@H](CC(=O)NCc3cc(F)cc(F)c3)CC[C@H]21 | i | -1 | -6 | 7.1
CN(C)C(=O)C[C@H]1CC[C@H]2[C@H](COc3ccc(NC(=O)NCc4ccccc4)cc3C(=O)N2C)O1 | i | 3 | 4 | -0.6
Cc1ccccc1-c1ccc2c(c1)[C@@H]1C[C@H]3[C@@H](CN1CC2)[C@H](C)OC(c1ccccc1)N3C (some centres undefined) | i | -28 | -25 | -0.8
COC(=O)C1=C(C)N(Cc2ccc(Br)cc2)C(=S)NC1c1ccc(F)cc1 (centres undefined) | i | -8 | -11 | -3.5
C[C@@H]1CN([C@H](C)CO)C(=O)c2cc(NC(=O)Cc3ccccc3)ccc2O[C@@H](C)CCCCO[C@H]1CN(C)C(=O)Nc1ccc2c(c1)OCO2 | i | -1 | -6 | 0.2
C[C@@H]1CCCCO[C@H](CN(C)S(=O)(=O)c2ccc(Cl)cc2)[C@@H](C)CN([C@@H](C)CO)C(=O)c2cc(NC(=O)Nc3ccc(C(F)(F)F)cc3)ccc2O1 | i | 4 | 8 | -1.8
CO[C@H]1CN(C)C(=O)c2ccc(NC(=O)Nc3ccc4c(c3)OCO4)cc2OC[C@H](C)NC[C@@H]1C | i | 4 | 2 | -0.9
COc1ccc2c3c([nH]c2c1)[C@H](CO)N(Cc1ccccc1)CC31CN(C)C1 | i | 5 | 9 | 3.1
O=C(N[C@@H](Cc1cccnc1)C(=O)N1CCC[C@H]1C(=O)NCCc1ccccc1Cl)c1ccco1 | i | -8 | 1 | 4.7
C[C@H](CO)N1C[C@H](C)[C@H](CN(C)C(=O)Cc2ccccc2)OCCCC[C@H](C)Oc2ccc(NC(=O)NC3CCCCC3)cc2C1=O | i | -2 | -3 | -0.2
CCCNC(=O)C[C@H]1CC[C@@H]2[C@@H](COc3ccc(NC(=O)c4cc(F)cc(F)c4)cc3C(=O)N2C)O1 | i | -4 | -7 | -0.3
COC(=O)C1=C(C)N(Cc2ccccc2C(F)(F)F)C(=NCc2ccc(C(F)(F)F)cc2)NC1c1ccccc1 (centres undefined) | i | -6 | -20 | 17
CN(C)C(=O)c1ccc(-c2ccc(C3[C@@H]4CN(Cc5ccc6c(c5)OCO6)C[C@H]3N4)cc2)cc1 (some centres undefined) | i | -3&-5 | -10&-6 | 1.5&4.8
CN1CCN(C(=O)C[C@H]2CC[C@H]3[C@@H](COC[C@H](O)CN3C(=O)Nc3ccc4c(c3)OCO4)O2)CC1 | i | i | . | .
COc1ccc(NC(=O)Nc2ccc3c(c2)CC(=O)N([C@@H](C)CO)C[C@H](C)[C@H](CN(C)C(=O)Nc2ccc(C(F)(F)F)cc2)O3)cc1 | i | -1 | -3 | 3.2
C[C@H](CO)N1C[C@H](C)[C@H](CN(C)C(=O)Nc2cccc3ccccc23)Oc2ccc(NS(=O)(=O)c3cccs3)cc2CC1=O | i | 1 | 4 | 0.6
Cc1ccc(S(=O)(=O)N(C)C[C@H]2OCCCC[C@H](C)Oc3ccc(NC(=O)C4CCCCC4)cc3C(=O)N([C@H](C)CO)C[C@H]2C)cc1 | i | -1 | 3 | 3.9
CC(C)NC(=O)C1(C)CN(S(C)(=O)=O)CC(=O)N1C1CCCCCC1 (centres undefined) | i | 9 | 5 | 2.2
O=C(N[C@H](C(=O)N1CCC[C@H]1C(=O)NC1CCCC1)C1CCCCC1)C1CCCC1 | i | -4 | 11 | 2.1
COc1cccc(NC(=O)N2C[C@H](O)COC[C@@H]3O[C@H](CC(=O)NCc4ccccc4F)CC[C@H]32)c1 | i | -1 | -5 | 0.0
CCCNC(=O)C[C@H]1C[C@H]2c3cc(NC(=O)Nc4ccccc4)ccc3O[C@H]2[C@@H](CO)O1 | i | -1 | 7 | -0.5
COc1ccc(S(=O)(=O)Nc2ccc3c(c2)C(=O)N([C@@H](C)CO)C[C@H](C)[C@H](CN(C)Cc2ccccc2)OCCCC[C@@H](C)O3)cc1 | i | 8 | -15 | 31
CCCC(=O)Nc1ccc2c(c1)C(=O)N(C)[C@H]1CC[C@@H](CC(=O)N3CCc4ccccc4C3)O[C@H]1CO2 | i | -2 | -8 | -1.7
C[C@@H]1CCCCO[C@@H](CN(C)C(=O)Nc2cccc3ccccc23)[C@H](C)CN([C@@H](C)CO)C(=O)c2cc(NC(=O)CCC(F)(F)F)ccc2O1 | i | 4 | 4 | -1.5
COc1ccc(CN(C)C[C@@H]2OCCCC[C@H](C)Oc3ccc(NC(=O)Nc4ccccc4)cc3C(=O)N([C@H](C)CO)C[C@H]2C)cc1 | i | -2 | -43 | 33
COC(=O)c1cccc(Nc2cc(C)n(-c3cccc(C(=O)OC)c3)c(=O)c2)c1 | i | 25 | 29 | 1.8
O=C(CC1CCCC1)N[C@@H](Cc1cccnc1)C(=O)N1CCC[C@H]1C(=O)NC1CCCC1 | i | 11 | 14 | 6.4
O=C(N[C@@H](Cc1cccnc1)C(=O)N1CCC[C@H]1C(=O)NCc1ccccc1)c1ccc(Cl)cc1Cl | i | 19 | 13 | 5.1
C[C@@H]1CCCCO[C@@H](CN(C)CC2CC2)[C@H](C)CN([C@H](C)CO)C(=O)c2cc(NC(=O)Nc3cccc4ccccc34)ccc2O1 | i | 4 | -1 | 3.2
Nc1ccn([C@@H]2O[C@H](C(=O)NCC(=O)N3CCOCC3)[C@@H](O)[C@H]2O)c(=O)n1 | i | 5 | 3 | 2.1
O=C(Cc1ccc(NC(=O)C2CCN(C(=O)CCc3ccccc3)CC2)cc1)Nc1cccc(C(=O)N2CCCC2)c1 | i | -19 | -4 | 5.0
COC(=O)C1=C(C)N(Cc2cccc(C(F)(F)F)c2)C(=NCc2ccc(C(F)(F)F)cc2)NC1c1ccc(F)cc1 (centres undefined) | i | -39 | -76 | -4.0
Cc1ccc(S(=O)(=O)N(C)C[C@@H]2OCCCC[C@@H](C)Oc3ccc(NC(=O)C4CCCCC4)cc3C(=O)N([C@@H](C)CO)C[C@H]2C)cc1 | i | -4 | 3 | 0.4
CC1C=NC(S(=O)(=O)N2CC[C@H]3[C@@H](CO)N(C)c4ccc(-c5ccc(F)cc5)cc4[C@H]32)=N1 (some centres undefined) | i | -5 | -4 | 3.2
CC(C)[C@H](NC(=O)C1CCCC1)C(=O)N1CCC[C@H]1C(=O)NCc1ccccc1 | i | 15 | -1 | 2.6
O=C(NC1CCCC1)C(c1ccco1)N1CCN(c2c(Cl)cncc2Cl)CC1 (centres undefined) | i | -21 | -44 | -4.7
COCC(=O)Nc1ccc2c(c1)[C@H]1C[C@@H](CC(=O)N3CCCCC3)O[C@@H](CO)[C@H]1O2 | i | 2 | 4 | 2.5
COCC(=O)N(C)C[C@H]1Oc2ncc(-c3ccccc3F)cc2C(=O)N([C@@H](C)CO)C[C@@H]1C | i | 3 | 8 | -1.5
C[C@@H]1CN([C@@H](C)CO)C(=O)Cc2cc(NC(=O)Nc3ccc4c(c3)OCO4)ccc2O[C@H]1CN(C)C(=O)Nc1ccccc1 | i | 1 | -3 | -2.1
C[C@@H]1CN([C@@H](C)CO)S(=O)(=O)c2ccc(-c3ccccc3)cc2O[C@H]1CN(C)Cc1cccnc1 | i | -10 | -28 | -5.4
COc1ccc(NC(=O)N(C)C[C@H]2Oc3ccc(NC(=O)Nc4ccc(C(F)(F)F)cc4)cc3C(=O)N([C@@H](C)CO)C[C@H]2C)cc1 | i | 4 | 2 | -2.1
CN1C(=O)c2cc(NS(C)(=O)=O)ccc2OC[C@H]2O[C@@H](CC(=O)Nc3cccc(F)c3)CC[C@@H]21 | i | -5 | -2 | 1.0
N#C[C@H](N)[C@H]1O[C@@H](n2ccc(=O)[nH]c2=O)[C@H](O)[C@@H]1O | i | 21 | 14 | 3.1
COCC(=O)Nc1ccc2c(c1)C(=O)N(C)[C@@H]1CC[C@H](CC(=O)NCc3ccc(OC)cc3)O[C@@H]1CO2 | i | 4 | 0 | -1.0
O=C(C[C@H]1CC[C@H]2[C@@H](COC[C@@H](O)CN2CCC(F)(F)F)O1)NCc1ccc(Oc2ccccc2)cc1 | i | -56 | -76 | -15

Entries of single compounds, looked up by structure:
Profile of C[C@@H]1CN([C@@H](C)CO)C(=O)Cc2cc(NC(=O)Nc3ccc4c(c3)OCO4)ccc2O[C@H]1CN(C)C(=O)Nc1ccccc1 = FGF22 binding = i; rRNA inh HTS = 1; rRNA inh HTS OD600 = -3; rRNA inh HTS RFP = -2.1
Profile of O=C(C[C@H]1CC[C@H]2[C@@H](COC[C@@H](O)CN2CCC(F)(F)F)O1)NCc1ccc(Oc2ccccc2)cc1 = FGF22 binding = i; rRNA inh HTS = -56; rRNA inh HTS OD600 = -76; rRNA inh HTS RFP = -15

Arranged by number of heavy atoms (descending): some entries from above
SMILES | FGF22 binding | rRNA inh HTS | rRNA inh HTS OD600 | rRNA inh HTS RFP
Cc1ccc(S(=O)(=O)N(C)C[C@@H]2OCCCC[C@@H](C)Oc3ccc(NC(=O)C4CCCCC4)cc3C(=O)N([C@@H](C)CO)C[C@H]2C)cc1 | i | -4 | 3 | 0.4
COc1ccc(NC(=O)N(C)C[C@H]2Oc3ccc(NC(=O)Nc4ccc(C(F)(F)F)cc4)cc3C(=O)N([C@@H](C)CO)C[C@H]2C)cc1 | i | 4 | 2 | -2.1
O=C(C[C@H]1CC[C@H]2[C@@H](COC[C@@H](O)CN2CCC(F)(F)F)O1)NCc1ccc(Oc2ccccc2)cc1 | i | -56 | -76 | -15
C[C@@H]1CN([C@@H](C)CO)S(=O)(=O)c2ccc(-c3ccccc3)cc2O[C@H]1CN(C)Cc1cccnc1 | i | -10 | -28 | -5.4
COCC(=O)N(C)C[C@H]1Oc2ncc(-c3ccccc3F)cc2C(=O)N([C@@H](C)CO)C[C@@H]1C | i | 3 | 8 | -1.5
CC1C=NC(S(=O)(=O)N2CC[C@H]3[C@@H](CO)N(C)c4ccc(-c5ccc(F)cc5)cc4[C@H]32)=N1 (some centres undefined) | i | -5 | -4 | 3.2
COCC(=O)Nc1ccc2c(c1)[C@H]1C[C@@H](CC(=O)N3CCCCC3)O[C@@H](CO)[C@H]1O2 | i | 2 | 4 | 2.5
CC(C)[C@H](NC(=O)C1CCCC1)C(=O)N1CCC[C@H]1C(=O)NCc1ccccc1 | i | 15 | -1 | 2.6
O=C(NC1CCCC1)C(c1ccco1)N1CCN(c2c(Cl)cncc2Cl)CC1 (centres undefined) | i | -21 | -44 | -4.7
N#C[C@H](N)[C@H]1O[C@@H](n2ccc(=O)[nH]c2=O)[C@H](O)[C@@H]1O | i | 21 | 14 | 3.1
